VDR inh: Inhibitors of the vitamin D receptor (VDR): qHTS; Vitamin D3 receptor (Homo sapiens), P11473; VDR-SRC2-3 peptide fluorescence polarization, 2 h; Potency, µM, inactives show max response, negative = inhibition, actives largely listed as inhibitors; 400,000 tested, 0.93% active; active = well fitted inhibition curve with a large enough effect; inconclusive = small, poorly fitted or top-dose-only effect, or another doubt; inactive = no such curve, though single readings can be large or run the other way; also: series mostly up to about 120 µM
Target sequence (P11473 whole entry, looked up): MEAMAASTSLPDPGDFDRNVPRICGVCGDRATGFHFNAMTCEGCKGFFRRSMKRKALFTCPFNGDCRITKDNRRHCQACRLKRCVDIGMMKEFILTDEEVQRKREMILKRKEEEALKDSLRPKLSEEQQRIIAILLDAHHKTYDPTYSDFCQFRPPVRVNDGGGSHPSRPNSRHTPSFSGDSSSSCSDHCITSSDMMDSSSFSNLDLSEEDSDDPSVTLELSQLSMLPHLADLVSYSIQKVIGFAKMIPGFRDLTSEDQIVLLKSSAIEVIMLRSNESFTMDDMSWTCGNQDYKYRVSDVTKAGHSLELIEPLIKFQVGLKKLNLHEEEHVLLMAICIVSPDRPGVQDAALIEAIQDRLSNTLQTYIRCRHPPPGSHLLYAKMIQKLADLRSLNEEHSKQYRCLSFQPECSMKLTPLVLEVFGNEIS
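Fluorescence polarization assay measuring small-molecule disruption of VDR binding to the coregulator peptide SRC2-3. Compounds were pin-transferred (23 nl) into the reagent mix and incubated 2 h at room temperature before reading.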
The depositor's hits bear a star; ? = inconclusive. % is scaled to controls: 0 for no effect and ±100 for the full control effect; potency is read from the fitted curve at half-maximal effect. A portion of the library; the hit share may differ from the screen's.

VDR inh	structure
-6%	O=C1CN(C(=O)c2ccccc2)C(c2ccccc2)c2cc(F)ccc2N1 (stereo unspecified)
?	Cc1ccc(CN(C)C(=O)CN2C(=O)NC3(CCCC3)C2=O)o1
5%	O=C(NCCN1CCCC1)C1COc2ccccc2O1 (stereo unspecified)
3%	COc1ccccc1-c1cn(S(=O)(=O)c2ccc(F)cc2)nc1N
-11%	O=C(COC(=O)CCCN1C(=O)c2cccc3cccc(c23)C1=O)Nc1ccc(Cl)cc1
6%	CCc1ccc(NC(=O)Cn2cc(S(=O)(=O)N3CCCC3)c(S(=O)(=O)N3CCCC3)c2)cc1
-7%	CC1CCN(Cc2c(C(=O)N/N=C/c3cccc(Cl)c3)nnn2-c2nonc2N)CC1
8%	COc1cccc(C(=O)Nc2ccc(NC(=O)C3CCCCC3C(=O)O)cc2)c1 (stereo unspecified)
-17%	CN(Cc1ccc(F)cc1)C(=O)c1cccc(S(=O)(=O)N2CCN(c3ccc(F)cc3)CC2)c1
6%	CCOC(=O)c1c(NC(=O)C(C)N2CCN(C(=O)c3ccco3)CC2)sc2c1CCCC2 (stereo unspecified)
6%	N#C/C(=C/c1ccccc1)c1nn(CCO)c(N)c1C#N
8%	CCOC(=O)CSc1ncnc2c1cnn2-c1ccc(C)cc1
8%	COc1ccc2c(c1[N+](=O)[O-])CCC/C2=N/OC(=O)c1cccc2ccccc12
15%	COc1ccc(-c2noc(CCCOc3ccccc3)n2)cc1OC
-4%	COc1ccc(/C=N/NC(=S)Nc2ccccc2)cc1COc1ccc(F)cc1F
-23%	CC1CC(=NNC(=O)C2COc3ccccc3O2)CC(C)(C)C1 (stereo unspecified)
22%	C=C1CCN([C@@H](CC(C)C)C(=O)NCc2cc(OC)c(OC)c(OC)c2)S(=O)(=O)c2ccccc21
-15%	O=C(/C=C/c1ccc([N+](=O)[O-])cc1)N1CCN(S(=O)(=O)c2cccs2)CC1
-7%	Cn1c(N)c(C(=O)Nc2cccc(Cl)c2)c(=O)n(C)c1=O
2%	O=C1N=c2ccccc2=C1c1sc(=S)n(Cc2ccccc2Cl)c1O
9%	CN(CC(=O)O/N=C(\N)c1ccccn1)S(=O)(=O)c1ccccc1
7%	CC(C)=CCN1CCN(Cc2cnc(C)s2)CC1CCO (stereo unspecified)
7%	O=c1c2c(nc3c(-c4ccccc4)c[nH]n13)CCCC2
4%	COCC(C)N1CCC(Oc2ccc(C(=O)NCc3ccccn3)cc2)CC1 (stereo unspecified)
-17%	CCOC(=O)C1=C(C)Nc2nc(SCC)nn2C1c1ccc(OC)cc1 (stereo unspecified)
3%	COc1cc(C2=NOC(C(=O)Nc3c(C)n(C)n(-c4ccccc4)c3=O)C2)cc(OC)c1OC (stereo unspecified)
-23%	CCCOC(=O)c1c(NC(=O)c2cc3nc(-c4ccc(OC)cc4)cc(C(F)(F)F)n3n2)sc2c1CCCC2
-4%	Clc1ccc(Cl)c2sc(N3CCOCC3)nc12
0%	CC(C)c1cccc(-c2ccc3c(c2)S(=O)(=O)c2cccc(C(=O)NCc4ccccc4Cl)c2C3=O)c1
-13%	Cc1[nH]c2ccccc2c1Cc1nnc(SCC(N)=O)o1
2%	CCN(Cc1ccncc1)C(=O)c1ccc(Br)o1
-4%	CC(C)c1ccc(/C=N/NC(=O)CC(=O)NCc2ccccc2)cc1
-25%	COc1ccc(S(=O)(=O)N2CCc3ccccc32)cc1C(=O)Nc1ccc(NC(C)=O)cc1
-2%	Cc1ccccc1CNC(=O)c1ccc(Cn2c(SCc3ccccc3)nc3cccnc32)cc1
-14%	COc1ccc(N(C)S(=O)(=O)c2ccc(Cl)c(C(=O)NCC(C)(C)N3CCOCC3)c2)cc1
0%	CCOC(=O)CNC(=O)N1CCCN(S(=O)(=O)c2ccc3c(ccn3CC)c2)CC1
3%	O=C(CNS(=O)(=O)c1ccccc1)N/N=C/c1ccc(O)cc1
-17%	O=C(OCC(=O)N1CCOCC1)c1ccccc1Cc1ccccc1
-3%	COc1ccc(Cl)cc1C(=O)Nc1ccc(CN2CCCCC2)cc1
9%	CC(C)C1=NN(C(=O)c2cccnc2)C(O)(C(F)(F)F)C1 (stereo unspecified)
?	Cc1cccc(C)c1NC(=S)NC(=O)c1ccc(Br)o1
8%	Cc1ccc2cc([N+](=O)[O-])ccc2n1
15%	CCCCc1nn2c(=O)cc(COC(=O)c3cccc(NC(=O)CCc4ccccc4)c3)nc2s1
14%	CC(C)(C)NC(=O)C1Cc2ccccc2CN1C(=O)Nc1cccc(Cl)c1 (stereo unspecified)
25%	COc1ccc(CN(CCCN2CCOCC2)S(=O)(=O)N(C)C)cc1OC
14%	COC(=O)CCCCC1SCC(NC(=O)c2ccccc2)C1OC(C)=O (stereo unspecified)
14%	COC(=O)CN(c1ccc(OC)cc1OC)S(=O)(=O)c1ccccc1[N+](=O)[O-]
9%	Cc1nnc(SCC(=O)Nc2ccc(S(=O)(=O)Nc3ccc(Cl)nn3)cc2)s1
-4%	CN1C(=O)/C(=C/c2ccccc2OCc2ccc(C(=O)O)cc2)NC1=S
-11%	CC1CCN(CCCNC(=O)CCNC(=O)Cn2cnc3ccccc3c2=O)CC1
-1%	CCCOc1ccc(CC(=O)NCCc2ccccc2)cc1OC
-13%	CCCOc1ccc(/C=C/c2[nH]c(=O)[nH]c(=O)c2[N+](=O)[O-])cc1OCC
-6%	CCC1CCC2(CC1)NC(=O)N(CC(=O)Nc1ccc(OC)c(Cl)c1)C2=O (stereo unspecified)
2%	CC(=O)N1CCN(C(=O)c2ccc(Cl)c(S(=O)(=O)N3CCc4ccccc43)c2)CC1
5%	Cc1cc(C(=O)NNC(=O)/C=C/c2ccccc2Cl)c(C)o1
12%	O=C(Nc1ccccc1C(F)(F)F)c1ccc(F)c(S(=O)(=O)N2CCc3ccccc3C2)c1
1%	CCOC(=O)N1CCN(C(=O)CNC(=O)c2nn(-c3ccc(OC)cc3OC)c(=O)c3ccccc23)CC1
5%	CCN1C(=C(C#N)C#N)C=Cc2cc(C)ccc21
-11%	CC1(C)C=Cc2c(c3ccccc3[nH]c2=O)O1
-2%	COc1cccc(C(=O)O/N=C(\N)c2ccccn2)c1

(continued)
VDR inh	structure
-6%	O=C(COc1ccccc1)NCCSCc1ccc(Cl)cc1
10%	Cc1cc(S(=O)(=O)NC2CCN(Cc3ccccc3)CC2)c(C)cc1Cl
-3%	O=S(=O)(N/N=C\c1cccc(F)c1)c1ccccc1
16%	COc1cc2c(cc1OC)C(NC(=O)c1ccc(C)cc1)CC2=O (stereo unspecified)
6%	CC(C)C1Cc2c(sc3ncnc(NN)c23)CO1 (stereo unspecified)
11%	CCc1cccc(CC)c1NC(=O)c1c(C)oc2ccc(O)c(CN3CCN(C)CC3)c12
-11%	C[C@@H]1NC(=O)[C@H](CCCN=C(N)N)NC(=O)c2cc([N+](=O)[O-])cc(I)c2NCCC[C@@H](C(N)=O)NC1=O
-6%	COc1ccc(NC(=O)NC2(C(=O)N3CCCC3)CCCCC2)cc1
-1%	CC(=O)c1ccc(NC(=O)c2cc(-c3ccc(C)s3)nc3ccccc23)cc1
2%	Cc1ccc(S(=O)(=O)N2CCOCC2)cc1C(=O)NC(=S)N1CC(C)CC(C)C1 (stereo unspecified)
-12%	CC(C)Cn1nc(C(=O)N2CCc3ccccc32)c2ccccc2c1=O
12%	COc1cccc(CNC(=O)c2cnc(N3CCCCC3)c3ccccc23)c1
-21%	CCn1c(SCC(=O)N2c3ccccc3Sc3ccccc32)nnc1-c1ccco1
13%	O=C(COC(=O)COc1ccc(Cl)cc1Br)NCc1cccs1
10%	CCOc1ccc(C2CC(c3cccc(OC)c3OC)n3nnnc3N2)cc1Cl (stereo unspecified)
-25%	COc1cc(Cl)c(C)cc1N1C(=O)CN(Cc2ccccc2)C1=S
4%	Cc1ccc(S(=O)(=O)NCc2ccccc2)s1
-27%	CC(C)CC(=O)NC(=S)Nc1ccccc1C(F)(F)F
17%	Cc1cc(NC(=O)CCC(=O)N(Cc2cccs2)C(C(=O)NC2CCCC2)c2ccncc2)no1 (stereo unspecified)
-4%	CCN(CC(=O)Nc1ccccc1OC)C(=O)CCOc1ccc(C(C)(C)C)cc1
-17%	Cn1nc(C(F)(F)F)c(/C=N/OC(=O)c2ccc(Cl)cc2)c1Cl
-9%	CC(C)(C)c1ccc(Oc2cccc(C3CC(=O)C(C4NCCc5ccccc54)C(=O)C3n3cncn3)c2)cc1 (stereo unspecified)
-1%	C[C@@H]1COC(=O)[C@@H](Cc2ccc(F)cc2)CC/C=C\C[C@@H](CC(=O)NCCO)C(=O)N1
8%	CC(NC(=O)COC(=O)c1cn(-c2ccccc2)nc1-c1cccs1)c1ccccc1 (stereo unspecified)

2 entries drawn at random from the list so far, as already listed:
VDR inh	structure
-9%	CC(C)(C)c1ccc(Oc2cccc(C3CC(=O)C(C4NCCc5ccccc54)C(=O)C3n3cncn3)c2)cc1 (stereo unspecified)
10%	CCOc1ccc(C2CC(c3cccc(OC)c3OC)n3nnnc3N2)cc1Cl (stereo unspecified)

The list continues:
VDR inh	structure
7%	N#Cc1ccccc1NC(=O)C(=O)NCC(c1cccnc1)N1CCc2ccccc2C1 (stereo unspecified)
15%	O=C(COC(=O)c1cncc(Br)c1)NC1CCCC1
-20%	CCOc1ccccc1C1c2[nH]c3ccccc3c2C[C@H]2C(=O)N(C3CCN(Cc4ccccc4)CC3)CC(=O)N12 (stereo partly specified)
?	Cc1ccc(C2C3CSCC=C3C(C#N)=C(N)C2(C#N)C#N)cc1 (stereo unspecified)
13%	Cc1ccc(-c2cc(C(=O)N3CCN(C(=O)c4ccco4)CC3)no2)cc1
13%	CCOC(=O)C1=C(C)Nc2ncnn2C1c1cccs1 (stereo unspecified)
-4%	O=C1c2cccnc2C(Nc2cccc(F)c2)N1Cc1ccco1 (stereo unspecified)
-26%	Cc1ccc(NC(=O)COC(=O)C2CC2)c(Br)c1
7%	Cc1nc(N2CCC(C)CC2)c2c(C)c(C(=O)Nc3cccc(C(F)(F)F)c3)sc2n1
-12%	Cc1ccc(NC(=O)COC(=O)CN2C(=O)NC3(CCCC3)C2=O)cc1Cl
4%	O=C(COc1ccc(Cl)cc1)NCCNC(=O)c1cnccn1
17%	Nc1cc(C(=O)OCC(=O)NCCC2=CCCCC2)ccc1Cl
-12%	O=C(/C=C/c1cccc([N+](=O)[O-])c1)NCCSCc1c(Cl)cccc1Cl
1%	Cc1cccc2cc(CN(Cc3ccc(F)cc3)Cc3nnnn3C3CCCC3)c(=O)[nH]c12
9%	CCN(CC)CCNC(=O)c1cn(CC)c2cc(N3CCN(C(=O)c4ccco4)CC3)c(F)cc2c1=O
3%	O=S(=O)(Nc1ccc(-c2nc3cccnc3s2)cc1)c1cc(F)ccc1F
14%	Cc1ccc(C)c(S(=O)(=O)N2CCN(C(=O)c3ccc(OCc4c(C)noc4C)cc3)CC2)c1
-15%	CN1CCc2c(c3ccccc3n2C)C1
18%	O=C(Nc1nnc(Cc2ccccc2)s1)c1cccs1
?	COc1ccccc1NC(=O)CCC(=O)OCc1ccc(Br)cc1
-1%	COc1ccc(CN(C(=O)CSc2nnc(-c3ccc(OC)c(OC)c3)o2)c2ccc(F)cc2)cc1
18%	O=C(NC1CCCCCCC1)C1c2ccccc2C(=O)N1Cc1ccco1 (stereo unspecified)
-24%	O=C1N=C(N2CCc3ccccc3C2)S/C1=C\c1cccc(O)c1
2%	Cc1ccc(C(=O)NCCCN2CCOCC2)cc1S(=O)(=O)N1CCCCC1
-14%	Cc1oc(-c2ccccc2Cl)nc1CSCC(=O)N1CCCC1
-7%	CCOC(=O)C(C(=O)OCC)C(C#N)c1ccccc1 (stereo unspecified)
1%	O=C(C1CCCC1)N1CCN(S(=O)(=O)c2ccc(F)c(F)c2F)CC1
-7%	COc1ccccc1C(=O)Nc1ccc2c(c1)OCCO2
-4%	Cc1cc(C)cc(OCC(=O)NNC(=O)c2ccccn2)c1
-7%	CC(=O)Nc1c(C(=O)Nc2ccc3c(c2)OCO3)oc2ccccc12
14%	CCOC(=O)c1cc(NC(=O)c2ccccc2)c(=O)n2c1oc1ccc(Cl)cc12
5%	Cc1cccc(OC(=O)c2cc(-c3ccc(Cl)cc3)on2)c1C

In the list so far, these have fluorine:
VDR inh	structure
-6%	O=C1CN(C(=O)c2ccccc2)C(c2ccccc2)c2cc(F)ccc2N1 (stereo unspecified)
3%	COc1ccccc1-c1cn(S(=O)(=O)c2ccc(F)cc2)nc1N
-17%	CN(Cc1ccc(F)cc1)C(=O)c1cccc(S(=O)(=O)N2CCN(c3ccc(F)cc3)CC2)c1
-4%	COc1ccc(/C=N/NC(=S)Nc2ccccc2)cc1COc1ccc(F)cc1F
-23%	CCCOC(=O)c1c(NC(=O)c2cc3nc(-c4ccc(OC)cc4)cc(C(F)(F)F)n3n2)sc2c1CCCC2
9%	CC(C)C1=NN(C(=O)c2cccnc2)C(O)(C(F)(F)F)C1 (stereo unspecified)
12%	O=C(Nc1ccccc1C(F)(F)F)c1ccc(F)c(S(=O)(=O)N2CCc3ccccc3C2)c1
-3%	O=S(=O)(N/N=C\c1cccc(F)c1)c1ccccc1
-27%	CC(C)CC(=O)NC(=S)Nc1ccccc1C(F)(F)F
-17%	Cn1nc(C(F)(F)F)c(/C=N/OC(=O)c2ccc(Cl)cc2)c1Cl
-1%	C[C@@H]1COC(=O)[C@@H](Cc2ccc(F)cc2)CC/C=C\C[C@@H](CC(=O)NCCO)C(=O)N1
-4%	O=C1c2cccnc2C(Nc2cccc(F)c2)N1Cc1ccco1 (stereo unspecified)
7%	Cc1nc(N2CCC(C)CC2)c2c(C)c(C(=O)Nc3cccc(C(F)(F)F)c3)sc2n1
1%	Cc1cccc2cc(CN(Cc3ccc(F)cc3)Cc3nnnn3C3CCCC3)c(=O)[nH]c12
9%	CCN(CC)CCNC(=O)c1cn(CC)c2cc(N3CCN(C(=O)c4ccco4)CC3)c(F)cc2c1=O
3%	O=S(=O)(Nc1ccc(-c2nc3cccnc3s2)cc1)c1cc(F)ccc1F
-1%	COc1ccc(CN(C(=O)CSc2nnc(-c3ccc(OC)c(OC)c3)o2)c2ccc(F)cc2)cc1
1%	O=C(C1CCCC1)N1CCN(S(=O)(=O)c2ccc(F)c(F)c2F)CC1
